# Bioassay records (PubChem)
# A1 inh – inducers of caspase activity in MEF A1-2A-BIM cells, primary screen, A1 inhibitor project, cell-based, CaspaseGlo luminescence. caspase-Glo luminescence, 3 h; percent of clofoctol signal, DMSO as zero. caspase activation, % (test concentration not listed). 21,000 compounds, 0.51% hits. AID 2241, 2010;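 active = most replicate scores above 10, or exactly half above 10 with mean activity above 10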;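 also: effector caspase 3 and 7 activity cleaving a DEVD luciferin substrate; 50 nL library stock added to about 30 µL; numbers are from one replicate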
# BJeLR viability – BJeLR cell viability loss, primary screen, luminescence, CellTiterGlo ATP; 30,000 compounds, 0.64% hits; viability loss activity score, % (test concentration not listed); BJeLR fibroblasts viability, 48 h; HRASV12, hTERT and SV40 LT/ST transformed; AID 2275, 2010; in the data active = viability loss activity score above about 50%; about a fifth of its hits are not listed in these tables;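 also: higher score means fewer live cells and less ATP luminescence; stock transfer was 50 or 100 nL into about 30 µL; 0% = vehicle wells and 100% = a reference killing control; one replicate is shown; the record names a cut of 85%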
# Numbers without * were called inactive; . = no result given. A portion of the library; the hit share may differ from the screen's.
SMILES | A1 inh | BJeLR viability
Cc1ccc(S(=O)(=O)Nc2ccc3c(c2)C(=O)N([C@@H](C)CO)C[C@@H](C)[C@@H](CN(C)Cc2ccc(Oc4ccccc4)cc2)O3)cc1 | 0.9 | -3.1
COc1ccc(S(=O)(=O)N2CCNCC2)cc1OC | 0.5 | 0.5
CC(C)(C)C(=O)Cn1nnc(N2CCOCC2)n1 | 1.7 | -2.3
C[C@H](CO)N1C[C@H](C)[C@@H](CN(C)C(=O)Nc2ccccc2)Oc2ccc(NC(=O)C3CCCCC3)cc2C1=O | -0.1 | -1.8
O=C(Nc1ccc(OCC(O)Cn2c3ccccc3c3ccccc32)cc1)c1ccccc1 (centres undefined) | . | -2.8
COc1ccc(OC)c(-n2c(=S)[nH]c3cc(C(=O)N4CCC(C(N)=O)CC4)ccc3c2=O)c1 | 0.2 | -0.1
Cc1ccc(Nc2nc(N)nc(CN3CCC(Cc4ccccc4)CC3)n2)cc1 | . | 5.3
CC1CC(NC(=S)Nc2ccc(I)cc2F)CC(C)(C)C1 (centres undefined) | -0.3 | 0.8
COc1c(O[C@@H]2O[C@H](CO)[C@@H](O)[C@H](O)[C@H]2O)cc2oc(-c3ccc(O)cc3)cc(=O)c2c1O | 0.7 | -4.1
C[C@@H]1O[C@@H](OC[C@H]2OC(Oc3c(-c4ccc(OCCO)c(OCCO)c4)oc4cc(OCCO)cc(O)c4c3=O)[C@H](O)[C@@H](O)[C@@H]2O)[C@H](O)[C@H](O)[C@H]1O (some centres undefined) | 0.4 | 3.1
CSc1nc(N)n(-c2cc(Cl)cc(Cl)c2)n1 | -1.1 | 0.6
C[C@@H]1CN([C@H](C)CO)C(=O)c2cc(NS(=O)(=O)c3ccc(F)cc3)ccc2O[C@@H]1CN(C)Cc1ccncc1 | 1.0 | 0.5
CN(Cc1ccccc1)S(=O)(=O)c1ccc2c(c1)SCC(=O)N2 | -0.6 | 3.2
CC1ON(c2ccc(Br)cc2)C(=O)NC1=O (centres undefined) | -1.7 | -1.6
COc1ccc(NC(=O)N(C)C[C@@H]2Oc3c(NC(=O)c4cnccn4)cccc3C(=O)N([C@H](C)CO)C[C@H]2C)cc1 | . | -1.1
C[C@@H]1CN([C@H](C)CO)C(=O)c2cccc(NS(=O)(=O)c3cn(C)cn3)c2O[C@@H]1CN(C)S(=O)(=O)c1cn(C)cn1 | . | -4.9
C[C@H]1CN([C@@H](C)CO)C(=O)c2cccc(NC(=O)C3CC3)c2O[C@H]1CN(C)Cc1ccc(-c2ccccc2)cc1 | . | 6.0
Cc1ccc(S(=O)(=O)N(C)C[C@@H]2Oc3ccc(NC(=O)CCCN(C)C)cc3C(=O)N([C@@H](C)CO)C[C@H]2C)cc1 | 0.5 | -2.2
COc1ccc(NC(=O)Nc2ccc3c(c2)C(=O)N([C@H](C)CO)C[C@H](C)[C@@H](CN(C)Cc2ccccc2)O3)cc1 | 0.0 | 0.9
C[C@@H]1CN([C@@H](C)CO)C(=O)c2cc(NC(=O)Cc3ccccc3)ccc2O[C@@H]1CN(C)C(=O)NC1CCCCC1 | -0.2 | -1.3
C[C@@H]1CN([C@@H](C)CO)C(=O)c2cc(NC(=O)C3CC3)ccc2O[C@@H]1CN(C)Cc1ccc(Oc2ccccc2)cc1 | 0.7 | 3.7
COc1ccc(-c2cc(=O)c3ccccc3o2)cc1 | -5.5 | -2.8
COc1ccccc1CNC(=O)c1ccc2c(SCC(=O)O)c3c(nc2c1)CCCC3 | . | -5.0
Cc1ccc(S(=O)(=O)N(C)C[C@@H]2Oc3ccc(NS(=O)(=O)c4cn(C)cn4)cc3C(=O)N([C@@H](C)CO)C[C@@H]2C)cc1 | 0.2 | 0.9
C[C@@H]1CN([C@@H](C)CO)C(=O)c2cccc(NC(=O)Nc3ccccc3)c2O[C@H]1CN(C)Cc1ccccc1 | . | 0.9
CCCN(C(=O)c1ccc2c(=O)n3c(nc2c1)CCCC3)c1ccc(Cl)c(Cl)c1 | 0.4 | 2.4
C[C@@H]1CN([C@@H](C)CO)C(=O)c2cc(NC(=O)Cc3cn(C)c4ccccc34)ccc2O[C@H]1CN(C)C(=O)Nc1ccccc1 | 0.0 | 0.3
CC(C)NC(=O)N(C)C[C@H]1Oc2ccc(NC(=O)Cc3cn(C)c4ccccc34)cc2C(=O)N([C@@H](C)CO)C[C@@H]1C | 0.5 | -2.9
Cc1oc2c(c1C(=O)NC1CCCC1)C(=O)c1ccccc1C2=O | -0.9 | 35
O=C(NCC1CCN(C2CCCC2)C1)c1cnn2ccccc12 (centres undefined) | 1.7 | 4.5
C[C@@H]1CN([C@H](C)CO)C(=O)c2cc(NC(=O)CCCCCC(=O)Nc3ccccc3N)ccc2O[C@@H]1CN(C)C(=O)NC1CCCCC1 | . | 4.0
CC(=O)OC[C@]12[C@@H](OC(C)=O)C[C@@H]3[C@@H](OC(=O)c4ccccc4)[C@]1(OC3(C)C)[C@H](C)C[C@H](OC(=O)c1ccccc1)[C@@H]2OC(C)=O | -0.8 | -2.0
C[C@@H]1CN([C@H](C)CO)C(=O)c2cccc(NS(=O)(=O)c3ccc(F)cc3)c2O[C@H]1CN(C)Cc1ccc(C(=O)O)cc1 | . | 5.1
O=C(c1ccccc1)c1cccn1CC(=O)N1CCCC1 | 1.7 | 0.3
Oc1ccc(CNc2cccc(C(F)(F)F)c2)c2cccnc12 | -0.3 | 0.0
C[C@H]1CN([C@@H](C)CO)C(=O)c2cc(NS(=O)(=O)c3cn(C)cn3)ccc2O[C@H]1CN(C)C(=O)Nc1ccccc1 | 0.2 | -3.6
CCC(=O)c1ccc(OC)cc1OC | 0.4 | 4.2
c1cn2c3c(n1)CCCc3c1cc(C3CCCCC3)ccc12 | -1.0 | 0.3
N#CCCN1c2ccccc2Sc2ccc(Cl)cc21 | 1.2 | 1.8
C[C@H](CO)N1C[C@H](C)[C@@H](CN(C)Cc2ccc(C(=O)O)cc2)Oc2c(NC(=O)c3ccc(-c4nccs4)cc3)cccc2C1=O | . | 2.0
Cc1ccc(S(=O)(=O)N(C)C[C@@H]2Oc3c(NC(=O)C4CCCCC4)cccc3C(=O)N([C@H](C)CO)C[C@@H]2C)cc1 | . | 1.2
CCOC(=O)c1ccc2nc(C(F)(F)F)nc(N3CC(C)OC(C)C3)c2c1 (centres undefined) | 0.8 | -6.8
C[C@@H]1CN([C@@H](C)CO)C(=O)c2cccc(NC(=O)C3CCOCC3)c2O[C@@H]1CN(C)S(C)(=O)=O | . | 13
CNC[C@H]1Oc2c(NC(=O)Nc3ccc(F)cc3)cccc2C(=O)N([C@H](C)CO)C[C@@H]1C | . | 0.5
COc1cc(NC2c3ccccc3C(=O)N2c2cc(C)ccn2)cc(OC)c1OC (centres undefined) | . | -2.9
CN(C)C(=N)c1n[nH]nc1SCc1ccccc1 | -0.5 | -3.5
COc1cc(OC)c(C(=O)CCCN2CCCC2)c(OC)c1 | 1.0 | 1.7
CC(=O)Oc1ccc2c(c1OC(C)=O)OCC1(O)Cc3c(cc(OC(C)=O)c(OC(C)=O)c3OC(C)=O)C21 (centres undefined) | 0.6 | 1.7
Cc1cc(C(F)(F)F)nc2c(Br)c(C(C)(C)C)nn12 | 0.5 | -0.9
CC1CC(C)CN(S(=O)(=O)c2ccc3c(c2)oc(=O)n3CC(=O)NC(C)c2ccccc2)C1 (centres undefined) | 0.1 | -1.1

# (continued)
SMILES | A1 inh | BJeLR viability
CC(C)NC(=O)Nc1cccc2c1O[C@@H](CN(C)C(=O)Nc1ccccc1)[C@@H](C)CN([C@@H](C)CO)C2=O | . | -0.1
N#Cc1c(F)cccc1NCCc1ccccn1 | -4.3 | -3.0
COC(=O)CSc1nnc(-c2ccccc2)o1 | -2.4 | 4.9
COc1ccc(CN(C)C[C@H]2Oc3ccc(NC(=O)CCN4CCOCC4)cc3C(=O)N([C@H](C)CO)C[C@@H]2C)cc1 | 0.4 | 0.0
NC(=O)c1nnc2ccc(Cl)cc2c1N | -0.1 | 2.5
C[C@H]1CN([C@@H](C)CO)C(=O)c2cccc(NC(=O)Nc3ccccc3)c2O[C@H]1CN(C)C(=O)Nc1ccc2c(c1)OCO2 | . | 1.0
C[C@@H]1CN([C@@H](C)CO)C(=O)c2cccc(NC(=O)C3CCOCC3)c2O[C@@H]1CN(C)C(=O)Nc1ccc(C(F)(F)F)cc1 | . | 3.3
Cc1ccc(NC(=O)c2ccc3ncsc3c2)cc1 | -4.3 | 0.3
C=C(C)CNc1nc(-c2ccccc2)c(-c2ccccc2)s1 | 0.4 | 4.5
COc1ccc(NC(=O)N(C)C[C@@H]2Oc3c(NS(=O)(=O)c4cccs4)cccc3C(=O)N([C@H](C)CO)C[C@H]2C)cc1 | . | -1.6
O=S(=O)(Nc1ccc(Cl)c(C(F)(F)F)c1)c1cnc[nH]1 | . | 1.8
Cc1cc(C(=O)Nc2cccc3c2O[C@H](CN(C)Cc2ccc(-c4ccccc4)cc2)[C@@H](C)CN([C@H](C)CO)C3=O)n(C)n1 | . | -3.9
C[C@@H]1CN([C@@H](C)CO)C(=O)c2cc(NC(=O)Nc3ccc(C(F)(F)F)cc3)ccc2O[C@H]1CN(C)C(=O)Nc1ccccc1 | -0.3 | 1.5
CCNc1nc(N2CCOCC2)nc(N2CCC(Cc3ccccc3)CC2)n1 | -0.9 | -0.4
COc1cc(NC(=O)c2ccc(CSC3CCCCC3)cc2)cc(OC)c1OC | 1.5 | 0.2
Cc1sc2nc(-c3ccccc3O)[nH]c(=O)c2c1C | -2.4 | -3.4
CC(=O)N1CCN(CCN=CC2=C(O)CC(c3ccccc3)CC2=O)CC1 (centres undefined) | 0.1 | 0.0
O=C1CSc2ccc(C(=O)NCC3COc4ccccc4O3)cc2N1 (centres undefined) | 0.6 | 0.4
O=C(CSc1cn(CC(=O)N2CCOCC2)c2ccccc12)NCc1ccco1 | 0.8 | -1.8
CC(C)NC(=O)Nc1cccc2c1O[C@@H](CN(C)C(=O)Nc1ccc(C(F)(F)F)cc1)[C@@H](C)CN([C@H](C)CO)C2=O | . | -5.2
COc1ccc(S(=O)(=O)N(C)C[C@@H]2Oc3ccc(NS(=O)(=O)c4ccccc4)cc3C(=O)N([C@H](C)CO)C[C@H]2C)cc1 | 0.2 | -0.8
CCOC(=O)C(C(=O)Nc1cccc(C(F)(F)F)c1)C1CCCCC1 (centres undefined) | -0.9 | 10
O=C(CSc1nnc(-c2ccccc2)c(-c2ccccc2)n1)NCCC1=CCCCC1 | 0.1 | 0.6
COc1ccc2c(=O)cc(-c3ccccc3OC)oc2c1 | 0.2 | -6.9
O=C1CC(CS(=O)(=O)c2ccc(C(F)(F)F)cn2)=NN1c1ccccc1 | 0.5 | 1.0
CC(C)c1ccc(NC(=O)CSc2n[nH]c(=O)n2C2CC2)cc1 | 0.4 | -3.6
C[C@H](CO)N1C[C@H](C)[C@@H](CN(C)S(=O)(=O)c2ccc(F)cc2)Oc2ccc(NS(=O)(=O)c3cn(C)cn3)cc2C1=O | -0.4 | -5.0
CC(C)NC(=O)Nc1ccc2c(c1)C(=O)N([C@H](C)CO)C[C@@H](C)[C@@H](CN(C)C(=O)Nc1ccccc1)O2 | 0.2 | -1.8
COc1ccc(CCNC(=O)CC(c2ccccc2)c2cccc(C)c2O)cc1OC (centres undefined) | . | -1.7
COc1ccc(/C=C/C(=O)NCc2ccccc2)cc1 | -2.7 | -2.5
c1ccc(Cn2c(-c3ccccc3)nc3ccccc32)cc1 | -0.1 | 12
COc1ccc(CN(C)C[C@@H]2Oc3ccc(NC(=O)c4ccncc4)cc3C(=O)N([C@H](C)CO)C[C@H]2C)cc1 | -1.4 | -0.2
C[C@@H]1CN([C@@H](C)CO)C(=O)c2cc(NC(=O)CCCN(C)C)ccc2O[C@@H]1CN(C)S(=O)(=O)c1cn(C)cn1 | 0.3 | 3.9
C[C@H]1CN([C@@H](C)CO)C(=O)c2cccc(NS(=O)(=O)c3cn(C)cn3)c2O[C@H]1CN(C)C(=O)Nc1cccc2ccccc12 | . | -0.1
Cc1ccc(Oc2ccc3c(c2)C(=O)N(CC(=O)O)C3=O)cc1 | . | 1.1
Cc1c(Cl)cccc1Nc1ccccc1C(=O)O | 1.4 | 8.1
CCNS(=O)(=O)c1cc(-c2nnc(Nc3ccc(F)cc3)c3ccccc23)ccc1C | -0.8 | -1.8
C[C@H]1CN([C@@H](C)CO)C(=O)c2cccc(NS(=O)(=O)c3ccc(F)cc3)c2O[C@@H]1CN(C)C(=O)Nc1ccc(C(F)(F)F)cc1 | . | -7.4
CC1=CC(=O)C2C(C)(C)CCC[C@]2(C)[C@@]1(O)CCc1ccoc1 (some centres undefined) | 0.4 | 4.3
Cc1cc(-c2nc(-c3ccnn3S(=O)(=O)c3cccc(C(F)(F)F)c3)cs2)no1 | -1.0 | -3.4

# Part of the list above in order of number of heavy atoms, low to high.
SMILES | A1 inh | BJeLR viability
Cc1sc2nc(-c3ccccc3O)[nH]c(=O)c2c1C | -2.4 | -3.4
CC(=O)N1CCN(CCN=CC2=C(O)CC(c3ccccc3)CC2=O)CC1 (centres undefined) | 0.1 | 0.0
CCNc1nc(N2CCOCC2)nc(N2CCC(Cc3ccccc3)CC2)n1 | -0.9 | -0.4

# Random excerpt: 3 entries already listed, in no set order.
SMILES | A1 inh | BJeLR viability
C[C@@H]1CN([C@@H](C)CO)C(=O)c2cccc(NC(=O)C3CCOCC3)c2O[C@@H]1CN(C)S(C)(=O)=O | . | 13
C[C@@H]1CN([C@H](C)CO)C(=O)c2cc(NS(=O)(=O)c3ccc(F)cc3)ccc2O[C@@H]1CN(C)Cc1ccncc1 | 1.0 | 0.5
CN(C)C(=N)c1n[nH]nc1SCc1ccccc1 | -0.5 | -3.5
